Screening results deposited in PubChem BioAssay by Sanford-Burnham Center for Chemical Genomics.
EBI2 block = EBI2 (human) antagonism; P32249; EBI2 beta-arrestin recruitment, luminescence, 7a,25-OHC stimulated; inhibition, % at 5 µM; 360,000 tested, 0.81% active; AID 651636; in the data active means inhibition above about 38%;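 further: enzyme fragment complementation signal reports receptor beta-arrestin coupling in cells; 0% = agonist plus DMSO wells and 100% = wells without agonist; some results beyond the cut were filed as inactive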
CCR6 antagonist = blocks CCL20-driven beta-arrestin recruitment at human CCR6 | inhibition, % at 20 µM | 340,000 tested, 0.49% active | CHO-K1 CCR6 PathHunter beta-arrestin, luminescence, CCL20-stimulated | P51684;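 active means compounds whose inhibition of the agonist-driven luminescence signal at 20 µM reaches about 50%, limit read from the data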;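 further: cells stimulated with CCL20 at 14 nM final; plate controls were DMSO with CCL20 for no effect and DMSO without agonist for full effect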
UBC13 polyUb = blocks human UBC13 polyubiquitin chain formation. inhibition, % at 20 µM. 330,000 tested, 0.47% active. P61088. TR-FRET; in the data active means inhibition above about 45%, passing the limit was not always enough
Target sequence (P61088 whole entry, looked up): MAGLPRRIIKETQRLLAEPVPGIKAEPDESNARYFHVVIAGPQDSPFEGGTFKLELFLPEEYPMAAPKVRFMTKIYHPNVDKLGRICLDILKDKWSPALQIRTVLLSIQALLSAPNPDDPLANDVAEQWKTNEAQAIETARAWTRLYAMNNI
SENP8 inh = blocks the human protease SENP8; Q96LD8; purified SENP8, Z-RLRGG-aminoluciferin cleavage, luminescence; inhibition, % at 10 µM; 330,000 tested, 1.2% active; AID 2540; in the data active means inhibition above about 50%
Target sequence (Q96LD8 whole entry, looked up): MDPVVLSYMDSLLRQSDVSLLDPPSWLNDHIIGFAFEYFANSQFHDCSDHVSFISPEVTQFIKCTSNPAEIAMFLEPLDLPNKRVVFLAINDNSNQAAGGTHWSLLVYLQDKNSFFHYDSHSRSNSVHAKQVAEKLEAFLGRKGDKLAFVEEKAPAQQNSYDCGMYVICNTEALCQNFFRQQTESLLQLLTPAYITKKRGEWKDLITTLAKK
Gli-Sufu block = antagonists of Gli-Sufu signaling. Sufu-KO-LIGHT fibroblasts, Gli luciferase reporter luminescence. inhibition, % at 5 µM. 340,000 tested, 0.74% active. AID 588413;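 active means inhibition above about 55%, limit read from the data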;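 further: 0% = DMSO-treated cells and 100% = wells with medium but no cells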
Starred values were filed as active, the others as inactive; . = no result given; & = joins results of further samples.

Values in the order: CCR6 antagonist | EBI2 block | SENP8 inh | Gli-Sufu block | UBC13 polyUb
> CCOC(=O)c1c(N)n(Cc2ccccc2)c2nc3ccccc3nc12
    44.8 | 30.8 | 9.3 | 1.4 | 5.1
> Oc1c(Br)c(Br)c(Br)c(Br)c1Br
    1.4 | -2.8 | -12.8 | -9.9 | -8.8
> NC(=O)c1cn(C2OC(CO)C(O)C2O)c2ncnc(N)c12 (stereo unspecified)
    14.8&-1.0 | 1.1&20.2 | -15.5 | 86.7* | -2.1
> c1ccc2cc(CC3=NCCN3)ccc2c1
    14.7 | -9.1 | 0.3 | 6.3 | 1.3
> O=S(=O)(c1ccc(Cl)cc1)c1ccc(Cl)cc1
    9.5 | 3.2 | -5.7 | 6.7 | 6.1
> Cc1cc2c(C(F)(F)F)cc(=O)oc2c2c1NCCC2
    2.4 | -0.4 | -6.4 | 11.7 | 2.4
> ClC(Cl)(Cl)c1ccccc1
    -3.2 | 0.0 | 8.1 | 3.0 | 5.3
> CC(C)C1(C)N=C(c2ncccc2C(=O)O)NC1=O (stereo unspecified)
    12.8 | -3.8 | -0.9 | -0.1 | 1.7
> COc1ccc(CCNC(=O)c2c(N)n(CCN3CCOCC3)c3nc4ccccc4nc23)cc1
    -5.2 | 10.4 | -7.4 | 14.2 | 31.5
> C[N+](C)(C)Cc1ccccc1
    -1.3 | -4.7 | -3.0 | 5.0 | -0.2
> COc1ccc(O)c(C(C)(C)C)c1
    4.2 | -4.9 | -1.5 | -10.6 | -10.6
> COCCOC(=O)c1c(N)n(Cc2ccccc2)c2nc3ccccc3nc12
    7.8 | 13.2 | 6.9 | 3.6 | -20.3
> CC12CCC(O)CC1CCC1C2CCC2(C)C(C3=CC(=O)OC3)C(O)CC12O (stereo unspecified)
    -10.2 | 7.5 | . | -5.0 | .
> C1CCC2CCCCC2C1 (stereo unspecified)
    6.3 | 2.7 | 9.0 | -2.0 | 5.2
> c1ccc2c(c1)Nc1ccccc1S2
    -10.1 | -19.8 | -10.4 | -5.5 | -13.5

Whole records as entered above.
Profile of C1CCC2CCCCC2C1 (stereo unspecified) : CCR6 antagonist: 6.3; EBI2 block: 2.7; SENP8 inh: 9.0; Gli-Sufu block: -2.0; UBC13 polyUb: 5.2
Profile of COCCOC(=O)c1c(N)n(Cc2ccccc2)c2nc3ccccc3nc12 : CCR6 antagonist: 7.8; EBI2 block: 13.2; SENP8 inh: 6.9; Gli-Sufu block: 3.6; UBC13 polyUb: -20.3

Entries listed so far containing an aryl methoxy group:
Values in the order: CCR6 antagonist | EBI2 block | SENP8 inh | Gli-Sufu block | UBC13 polyUb
> COc1ccc(CCNC(=O)c2c(N)n(CCN3CCOCC3)c3nc4ccccc4nc23)cc1
    -5.2 | 10.4 | -7.4 | 14.2 | 31.5
> COc1ccc(O)c(C(C)(C)C)c1
    4.2 | -4.9 | -1.5 | -10.6 | -10.6

Random excerpt: four records from the list, in no set order.
Values in the order: CCR6 antagonist | EBI2 block | SENP8 inh | Gli-Sufu block | UBC13 polyUb
> COc1ccc(O)c(C(C)(C)C)c1
    4.2 | -4.9 | -1.5 | -10.6 | -10.6
> COCCOC(=O)c1c(N)n(Cc2ccccc2)c2nc3ccccc3nc12
    7.8 | 13.2 | 6.9 | 3.6 | -20.3
> C[N+](C)(C)Cc1ccccc1
    -1.3 | -4.7 | -3.0 | 5.0 | -0.2
> Cc1cc2c(C(F)(F)F)cc(=O)oc2c2c1NCCC2
    2.4 | -0.4 | -6.4 | 11.7 | 2.4

The listing continues:
Values in the order: CCR6 antagonist | EBI2 block | SENP8 inh | Gli-Sufu block | UBC13 polyUb
> Cc1cc(Cl)ccc1OCC(=O)O
    1.8 | -11.8 | 0.3 | -10.1 | 6.4
> c1ccc(OCC2CO2)cc1 (stereo unspecified)
    -3.8 | -0.2 | -6.2 | -10.7 | 0.8
> c1ccc(Nc2ccc(Nc3ccccc3)cc2)cc1
    24.1 | 3.3 | -13.7 | 17.1 | 0.3
> CCC(C)NC(=O)c1c(N)n(CC2CCCO2)c2nc3ccccc3nc12 (stereo unspecified)
    1.2 | 12.6 | 83.0* | 6.0 | 13.9
> COc1ccccc1N=Cc1c(O)n(C)c(=O)n(C)c1=O
    13.8 | 4.4 | 10.5 | -4.0 | 11.0
> C[C@H]1CCC/C=C/C2C[C@H](O)CC2[C@H](O)/C=C/C(=O)O1 (stereo partly specified)
    -5.7 | 1.0 | -6.0 | 86.6* | -6.6
> C[C@]12CCC(=O)C=C1CC[C@@H]1[C@@H]2CC[C@@]2(C)[C@H]1CC[C@]2(C)O
    7.6 | -4.2 | . | 12.5 | .
> COCCCn1c(N)c(C(=O)NCCC(C)C)c2nc3ccccc3nc21
    13.2 | 8.5 | 76.7* | 6.5 | 23.1
> CNC(=O)Oc1cccc2ccccc12
    3.5 | -9.7 | 4.4 | -2.7 | 2.1
> N#C/C=C/C#N
    1.9 | -2.5 | 23.7 | 25.3 | 5.6
> CC(=O)O[C@@]12CO[C@@H]1C[C@H](O)[C@@]1(C)C(=O)[C@H](O)C3=C(C)[C@@H](OC(=O)[C@H](O)[C@@H](NC(=O)c4ccccc4)c4ccccc4)C[C@@](O)([C@@H](OC(=O)c4ccccc4)C12)C3(C)C (stereo partly specified)
    1.7 | -2.8 | -12.6 | -1.4 | 3.1
> O=[N+]([O-])NC1=NCCN1Cc1ccc(Cl)nc1
    0.1 | 4.8 | 2.9 | -5.7 | 2.0
> CNC(C)(C)Cc1ccccc1
    1.7 | 1.2 | -0.4 | -6.6 | -5.4
> CN1CC[C@]23c4c5ccc(O)c4OC2[C@H](O)C=CC3[C@H]1C5 (stereo partly specified)
    2.8 | -0.1 | 8.1 | -18.1 | 7.1
> CCOC(=O)c1ccc(NC(=O)c2c(O)[nH]c(=O)[nH]c2=O)cc1
    -5.3 | -12.7 | 66.2* | 7.4 | 3.4

The list is partial (hit frequency here may not be typical).
